2A Renilla – lowers the Renilla signal of an FMDV 2A StopGo reporter; hit rate 0.32% among 120,000; HEK cells with a luciferase reporter of 2A StopGo recoding; Potency, µM (highest dose often 57.5 µM), without a hit: top-dose signal change, negative = less light; AID 1745857; active means well fitted falling curve with a large enough effect; inconclusive means small, poorly fitted or top-dose-only effect; inactive means no such curve, though single readings can be large or run the other way; note: nearly all actives have a fitted effect of over 55% in size; overnight with compound
2A firefly – lowers the firefly signal of an FMDV 2A StopGo reporter. HEK cells with a luciferase reporter of 2A StopGo recoding. Potency, µM (titrated, usually from 57.5 µM), for the others: at the highest dose signal change, negative = less light. hit rate 0.23% among 120,000. AID 1745856; active = well fitted falling curve with a large enough effect; inconclusive = small, poorly fitted or top-dose-only effect; inactive = no such curve, though single readings can be large or run the other way; note: nearly all actives have a fitted effect of over 60% in size; overnight with compound
* marks the source's active call; other numbers are inactive results; u = inconclusive; [ ] = another dose, or the depositor's remark. % is set by controls: 0 for no effect and ±100 for the full control effect; potency is the fitted concentration of half-maximal effect. An excerpt. The share of hits here may be higher or lower than overall.

mol	2A Renilla	2A firefly
COc1ccccc1NC(=O)C1=C(C)Nc2nnnn2C1c1ccc(C(F)(F)F)cc1 (configuration not stated)	-10%	1%
CCc1ccc(/C(C)=N/NC(=O)c2ccc(C(C)(C)C)cc2)cc1	22%	65%[activator]
O=C(O)c1cc(-c2ccccc2)nn1Cc1ccccc1	14%	9%
CCC(=O)Nc1cc(-c2cn3cccnc3n2)ccc1OC	-9%	-7%
COCCCNC(=S)Nc1ccccc1C(C)(C)C	35%[activator]	13%
O=C(Nc1c(-c2ccccc2)nc2sccn12)c1cccc(S(=O)(=O)N2CCOCC2)c1	67%[activator]	123%[activator]
Cc1cccc(NC(=O)c2cc(C)nc3ccccc23)n1	-4%	10%
CC#CC[N+](C)(C)CCCCCCCCCC	u	u
Cc1cccc(OCCCn2c(CCNC(=O)C3CCCCC3)nc3ccccc32)c1	-6%	u
O=C(c1ccc2c(c1)N(Cc1ccc(F)cc1)C(=O)c1ccccc1S2=O)N1CCOCC1 (configuration not stated)	33%[activator]	11%
CC(=O)Nc1ccc2oc(-c3ccc(C)cc3)cc(=O)c2c1	16%	52%[activator]
CCn1c(C(=O)NCc2ccc(F)cc2)cc2oc3ccccc3c21	u	u
Cn1cnc2c1c(=O)n(CC(=O)NCC1(c3ccccc3)CC1)c(=O)n2C	-5%	-7%
Cc1cccc(C(=O)N2c3nc(-c4ccco4)nn3C3(CCCCC3)[C@@H]3CCCC[C@@H]32)c1	-10%	-23%
Cc1ccc(C(=O)NCC(=O)OCc2cc(=O)n3c(C)csc3n2)cc1	-16%	-13%
COCc1cccc(C(=O)NCc2ccc(C#N)cc2)c1	-1%	1%
COc1ccc(OC)c(NC(=O)C(CCSC)NS(=O)(=O)c2cccs2)c1 (configuration not stated)	6%	-6%
Cc1ccc(C(=O)N/N=C/c2ccccc2)cc1	21%	79%[activator]
O=C(OCc1nc2ccccc2o1)c1ccccc1	-14%	4%
O=C(Nc1cccc(F)c1)[C@@H](c1ccccc1)N1Cc2ccccc2C1=O	107%[activator]	19%
CCc1ccc(NC(=O)CSc2nnc(-c3cc4occc4n3C)n2-c2ccccc2C)cc1	8%	-7%
COc1cc(NC(=O)CSc2nc(-c3ccco3)cc(C(F)(F)F)n2)cc(OC)c1OC	0%	-11%
COc1ccccc1C(=O)N1CCC(c2c[nH]c3ccccc23)(c2c[nH]c3ccccc23)CC1	-15%	-28%
CC(C)(C)c1ccc(-c2nc(S(=O)(=O)c3ccccc3)c(N3CCOCC3)o2)cc1	-7%	45%[activator]

14 entries from above, with two lines to a compound:
Fields: 2A Renilla	2A firefly
CC(=O)Nc1ccc2oc(-c3ccc(C)cc3)cc(=O)c2c1
→ 16%	52%[activator]
CCn1c(C(=O)NCc2ccc(F)cc2)cc2oc3ccccc3c21
→ u	u
Cn1cnc2c1c(=O)n(CC(=O)NCC1(c3ccccc3)CC1)c(=O)n2C
→ -5%	-7%
Cc1cccc(C(=O)N2c3nc(-c4ccco4)nn3C3(CCCCC3)[C@@H]3CCCC[C@@H]32)c1
→ -10%	-23%
Cc1ccc(C(=O)NCC(=O)OCc2cc(=O)n3c(C)csc3n2)cc1
→ -16%	-13%
COCc1cccc(C(=O)NCc2ccc(C#N)cc2)c1
→ -1%	1%
COc1ccc(OC)c(NC(=O)C(CCSC)NS(=O)(=O)c2cccs2)c1 (configuration not stated)
→ 6%	-6%
Cc1ccc(C(=O)N/N=C/c2ccccc2)cc1
→ 21%	79%[activator]
O=C(OCc1nc2ccccc2o1)c1ccccc1
→ -14%	4%
O=C(Nc1cccc(F)c1)[C@@H](c1ccccc1)N1Cc2ccccc2C1=O
→ 107%[activator]	19%
CCc1ccc(NC(=O)CSc2nnc(-c3cc4occc4n3C)n2-c2ccccc2C)cc1
→ 8%	-7%
COc1cc(NC(=O)CSc2nc(-c3ccco3)cc(C(F)(F)F)n2)cc(OC)c1OC
→ 0%	-11%
COc1ccccc1C(=O)N1CCC(c2c[nH]c3ccccc23)(c2c[nH]c3ccccc23)CC1
→ -15%	-28%
CC(C)(C)c1ccc(-c2nc(S(=O)(=O)c3ccccc3)c(N3CCOCC3)o2)cc1
→ -7%	45%[activator]

Continued.
mol	2A Renilla	2A firefly
Oc1ccc2ccccc2c1C=Nc1c(F)c(F)c(F)c(F)c1F	-3%	16%
O=C(c1n[nH]c(=O)c2ccccc12)N1CCCC1c1nc2ccccc2s1 (configuration not stated)	-11%	-8%
COc1ccc2c(C(F)(F)F)cc(=S)[nH]c2c1	6%	6%
COc1cc(C(=O)Nc2ccc(N3CCOCC3)nc2)cc2c1OCCO2	1%	6%
Cn1cnc2c1c(=O)n(CC(=O)Nc1ccc(N3CCCCCC3)cc1)c(=O)n2C	-23%	10%
CC1=C(C(=O)OC(C)C)C(c2cccc(Cl)c2Cl)CC(=O)N1 (configuration not stated)	u	u
Cc1ccccc1NC(=O)CC(NCc1cccnc1)C(=O)O (configuration not stated)	-2%	-9%
Cc1ccc(CNC(=O)c2cc3c(s2)-c2ccc(Cl)cc2SC3)cc1	-7%	19%
O=C(NCCn1cc(SCc2ccc(Cl)cc2)c2ccccc21)c1cccs1	-6%	-15%
CC1=C(C(=O)OCC(F)(F)C(F)(F)F)C(c2ccc3c(c2)OCO3)NC(=O)N1 (configuration not stated)	-11%	-15%
COC(=O)c1ccccc1NC(=O)N1CCC(n2c(C)nc3cccnc32)CC1	-9%	-8%
O=C(Cc1ccccc1)OCC(=O)c1ccc(-c2ccccc2)cc1	-2%	40%[activator]
COc1ccc(NC2=NC(C(=O)Nc3cc(Cl)ccc3OC)CC(=O)N2)cc1 (configuration not stated)	-1%	-2%
COC(=O)c1cnc(NC(=O)Cc2ccc(-c3ccccc3)cc2)s1	-3%	0%
Brc1ccc(-c2noc(-c3cccs3)n2)o1	-2%	160%[activator]
Cc1ccc(C(C)C)c(OCC(=O)Nc2ccc(S(=O)(=O)Nc3nccs3)cc2)c1	0%	14%
COc1ccccc1CCNC(=O)Cc1c(C)c2c(cc(C)c3c(C)coc32)oc1=O	-14%	-3%
Cc1ccc(C(=O)/C=C/c2ccc(F)c(Br)c2)o1	11%	0%
CCN1CCN(C(C)CNC(=O)NCc2csc(C)n2)CC1 (configuration not stated)	14%	25%
Cc1ccc(NC(=O)C2CCC(CNS(=O)(=O)c3cccc4nsnc34)CC2)c(C)c1 (configuration not stated)	-8%	-15%
Cc1ccc(Cl)c(OCc2n[nH]c(=S)n2C)c1	4%	21%
COc1cc(-c2nc3c(c(=O)[nH]c(=O)n3Cc3ccccc3)n2CC2CCCO2)ccc1O (configuration not stated)	26%	18%
COc1ccc(NC(=O)Nc2ccc(F)c(-c3nnc(-c4ccccc4)o3)c2)c(OC)c1	2%	35%[activator]
CCCCCc1ccc(-c2ccc(C#N)cc2)nc1	2%	162%[activator]
CCCN1CCN(c2nnc(-n3cccc3CN3CCN(c4ccccc4)CC3)s2)CC1	-4%	16%
CC(NC(=O)c1ccc(Cl)o1)c1nc(-c2ccc(F)cc2)no1 (configuration not stated)	-14%	20%
COc1cccc(N2CC(NC(=O)Cc3cccs3)CC2=O)c1 (configuration not stated)	-2%	-19%
CCNS(=O)(=O)c1ccc(C(=O)N2CCCC2c2ccc3c(c2)OCCO3)cc1 (configuration not stated)	48%[activator]	-4%
CSc1cccc(NC(=O)CNc2ccccc2C(=O)NC2CC2)c1	0%	18%
Cc1ccc(/C=C/C(=O)Nc2ccc3nc(N4CCC(C)CC4)cc(C)c3c2)cc1	-2%	-14%
COc1ccc(C(=O)/C=C/c2ccc(C(F)(F)F)cc2)cc1F	14%	8%
O=C(CSc1nc2cc([N+](=O)[O-])ccc2o1)Nc1ccc(F)c(F)c1	44%[activator]	29%
CCOc1ccc(-n2c(SCC(=O)N3CCCc4ccccc43)nc3c(c2=O)SCC3)cc1	6%	-4%
CC(C)(C)NCC(O)COc1cccc2c1CCC(=O)N2 (configuration not stated)	-6%	-2%
COc1cccc(/C=C/c2nc(C#N)c(N(C)Cc3ccccc3)o2)c1	31%[activator]	16%
COC(=O)CN1CCN(CCC(C)C)CC1	8%	-6%

Next part
mol | 2A Renilla | 2A firefly
OB(O)c1cc2ccccc2s1 | 32% | 0%
COc1cccc2cc(/C=C/C(=O)c3ccc(C)o3)oc12 | -9% | -7%
COC(=O)CCNC(=O)N1CCc2[nH]cnc2C1c1cccc(Cl)c1Cl (configuration not stated) | 10% | -3%
CCn1c(C)cc(C(=O)COC(=O)c2c(C)nn(Cc3ccc(C)cc3)c2Cl)c1C | 7% | 0%
Cc1ccc(C)c(-n2nnnc2SCC(=O)Nc2ccc3nccnc3c2)c1 | 16% | 0%
CCn1cc(S(=O)(=O)N2CCCC(C(=O)NCc3c(Cl)cnn3CC)C2)c(C)n1 (configuration not stated) | 2% | 11%
CC(CNC(=O)c1cc2ccccn2n1)c1ccccc1 (configuration not stated) | 5% | 157%[activator]
CC(NC(=O)CN1CSCC1=O)c1ccccc1Cl (configuration not stated) | 31%[activator] | 0%
CN(CCO)c1nc2c(c(=O)[nH]c(=O)n2C)n1Cc1ccccc1Cl | -2% | 1%
CCOc1ccc(C(=O)c2cn(CC(=O)Nc3cccc(OC)c3)c3cc4c(cc3c2=O)OCCO4)cc1 | -9% | 45%[activator]
Cc1cc(Nc2ccc(F)cc2)n2c(nc3ccccc32)c1C#N | 1% | 5%
COc1ccc(C)cc1NC(=O)c1cc(S(=O)(=O)N2CCc3ccccc3C2)ccc1F | -6% | -1%
N#Cc1ccc(CN2CCN(C(=O)c3ccc(Cn4nnc5ccccc54)cc3)CC2)cc1 | 5µM* | 6.3µM*
O=C(Nc1cccc(Cl)c1)C1Sc2nnc(-c3ccccc3)n2NC12CCCCC2 (configuration not stated) | u | u
C/C(=N/Nc1ccc2ccccc2c1)c1ccccc1 | 10% | 152%[activator]
CC(C)C(=O)N(C)Cc1cc(=O)[nH]c2ccccc12 | -4% | -1%
O=C(Nc1nn(Cc2c(Cl)cccc2Cl)cc1Cl)c1nc2ncccn2n1 | 89%[activator] | 0%
N#C/C(=C/C=C/c1ccccc1)C(=O)NC1CC1 | 5% | 96%[activator]
CCOc1ccccc1NC(=O)COC(=O)c1ccc2ccccc2n1 | -9% | -3%
COC(=O)CN1CCN(c2nc3c(c(=O)[nH]c(=O)n3C)n2Cc2cccc3ccccc23)CC1 | -7% | -2%
Cc1cc(SCC(=O)NN2C(=O)NC3(CCCCC3)C2=O)nc2c(C)cccc12 | 3% | 4%
CC(CCN1CCC(C(O)(c2ccccc2)c2ccccc2)CC1)Oc1cccc(C(F)(F)F)c1 (configuration not stated) | -9% | -18%
Cc1ccc2[nH]c(C(=O)NCc3ccccc3C)cc2c1 | 0% | 19%
CCCCOc1nc2ccccc2nc1NS(=O)(=O)c1ccc(F)cc1 | 12% | 18%
Cc1nn(-c2ccccc2)c(C)c1CN(C)S(=O)(=O)c1ccc(Cl)cc1F | 22% | 23%
Cc1nc(-c2cccs2)c(CC(=O)Nc2ccc3c(c2)OCCO3)s1 | 9% | 0%
COc1ccccc1N1CN(CCCN(C)C)Cn2c1nc(C)c(C)c2=O | 40%[activator] | 72%[activator]
Clc1ccc(Cn2c(CN3CCCC3)nc3ccccc32)cc1 | -9% | -20%
CCOC(=O)c1ccc(N2C(=O)c3n[nH]c(-c4ccco4)c3C2c2cccc(F)c2)cc1 (configuration not stated) | u | u
Nc1nccnc1C(=O)NCC1CCC1 | -12% | 22%
Cc1ccc(F)cc1NC(=O)CN1N=C(c2ccccc2)c2cc(Cl)ccc2S1(=O)=O | 12% | 3%
CCOc1ccccc1CNS(=O)(=O)c1cc(-c2onc(C)c2C)ccc1OC | 199%[activator] | -13%
CCOC(=O)CCc1c(C)nc2c(-c3ccccc3)c(C)[nH]n2c1=O | -1% | -4%
CC(C)CNC(=O)Cc1ccc(-n2c(=O)c3ccccc3n(Cc3ccccc3F)c2=O)cc1 | -1% | 7%
Cc1cccc(-c2nc(CCNC(=O)c3ccccc3Br)cs2)c1 | u | u
COc1ccccc1CCNC(=O)C1CCN(c2nc3ccccc3nc2C(F)(F)F)CC1 | -2% | 7%
COc1ccc(-c2c(C)nn3c(C(F)(F)F)cc(C)nc23)cc1OC | -17% | -10%
CCCCCCCCCCOc1ccc(OC(=O)c2cccnc2)cc1 | 17% | 25%
O=C(NCc1ccccc1)c1cnc2ccccc2n1 | 32%[activator] | 128%[activator]
Cc1cc(=O)oc2cc(OCC(=O)N(C)C3(C#N)CCCCC3)ccc12 | -2% | -5%
CC(=O)Nc1ccc(C(=O)COc2ccc(C(C)=O)cc2)cc1 | 4% | 9%
Cc1ccc(-c2cn3c(n2)sc2cc(C(=O)NCc4cccs4)ccc23)c(C)c1 | 28% | 59%[activator]
Cc1ccc(NC(=O)C(Sc2nnc(-c3ccoc3C)o2)c2ccccc2)cc1Cl (configuration not stated) | 88%[activator] | 0%
Cc1ccc(-c2nc(C#N)c(N3CCC(C(N)=O)CC3)o2)cc1 | 24% | 24%
O=C(CCN1N=C(c2ccccc2)CCC1=O)NCCc1ccc(Cl)cc1 | -5% | -14%
CC(Sc1ccc2ccccc2n1)C(=O)Nc1sccc1C(N)=O (configuration not stated) | u | u
COc1ccc(CNC(=O)C2(c3cccs3)CCOCC2)cc1 | 11% | -19%
O=[N+]([O-])c1ccc(NCc2ccccc2)c2ncccc12 | 11% | 52%[activator]
Cc1cc(C)nc(NC(=O)Nc2cccc(Cl)c2C)c1 | -7% | 9%
COC(=O)C1CCN(C(=O)COC(=O)c2cc3ccccc3[nH]2)CC1 | -9% | 1%
COc1ccccc1C(=O)Nc1cc(-c2ccc(C)cc2)no1 | 4% | 87%[activator]
